Compound activity from PubChem BioAssay.
Sa helicase inh: inhibitors of S. aureus replicative helicase, primary screen, biochemical, fluorescence unwinding readout; replicative DNA helicase (DnaC/DnaB), Staphylococcus aureus; purified S. aureus helicase, fluorescence unwinding assay; about half of the hits fall short of the stated cut; inhibition, %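 (tested at about 80 µM)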; 0.05% of 120,000 active; AID 485395, 2010;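 active means both duplicates at 50% or more, or one of them with a favoured structure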;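 further: 0% = mean of negative control wells and 100% = mean of positive control wells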
MgrA-DNA mod: S. aureus MgrA activity modulators, primary screen, biochemical, S. aureus Newman, fluorescence polarization; MgrA-DNA binding; inhibition, %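 (about 10 µg/mL by stock and volumes)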; 0.13% of 84,000 active; AID 602314, 2012;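 active means above 50% in either of two replicates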;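 further: 0% = protein plus DNA without compound and 100% = DNA alone without protein; higher means less MgrA bound to DNA so lower polarization; one replicate is shown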
* marks the source's active call; other numbers are inactive results; / = no result given. Some of the compounds tested. The share of hits here may be higher or lower than overall.

entry	smiles	Sa helicase inh	MgrA-DNA mod
1	c1ccc(N=c2[n-][n+](-c3ccccc3)cn2-c2ccccc2)cc1	12	20
2	CCOC(=O)N1CCN(Cc2cc(=O)oc3ccc(OC)cc23)CC1	-2	-2.4
3	Cc1ccc(-n2cc(-c3ccccc3)c3c(NCc4ccccc4)ncnc32)cc1	2	-1.1
4	O=C(CSc1nnc2ccccn12)Nc1cc(C(=O)O)cc(C(=O)O)c1	-3	/
5	CCOC(=O)c1oc2c(c1C)C(=O)CC(C)(C)C2	14	4.5
6	Cc1[nH]n(-c2ccccc2)c(=O)c1/C=N/NC(C)(C)C	16	/
7	C=C(C)[C@@H]1CC[C@]2(CO)CC[C@]3(C)[C@H](CC[C@@H]4[C@@]5(C)CCC(O)C(C)(C)[C@@H]5CC[C@]43C)[C@@H]12 (stereo partly specified)	/	-0.4
8	Cc1csc2c(N3CCOCC3)ncnc12	0	/
9	CCCCN(Cc1ccco1)C(=O)Cn1nc(Cc2ccncc2)c2ccccc2c1=O	4	/
10	c1ccc(CSc2ncnc3c2nnn3Cc2ccccc2)cc1	9	-0.9
11	COc1nc(Cl)nc(N2CCCCC2)n1	-4	-2.8
12	CCOC(=O)c1nccn1Cc1ccccc1Cl	10	1.9
13	COc1ccccc1CNC(=O)CCS(=O)(=O)c1ccc2c(c1)n(C)c(=O)c(=O)n2C	-19	/
14	Cc1ccccc1Nc1nc2nonc2nc1N1CCOCC1	/	0.9
15	O=C(/C=C/C(=O)N1CCOCC1)NC1CCCc2ccccc21 (stereo unspecified)	1	/
16	CCOc1ccc(S(=O)(=O)N2CCCC(C(=O)NC)C2)cc1Cl (stereo unspecified)	8	0.3
17	CCOC(=O)C(C)(C)Sc1nnc(COc2ccccc2)n1CC	14	3.1
18	[O-][n+]1onc2c1CCc1c-2nn(-c2ccc(Cl)cc2Cl)[n+]1[O-]	26	/
19	C/C(=N\NC(N)=O)C1CC(Cc2ccccc2)C(=O)O1 (stereo unspecified)	-5	1.4
20	Nc1ncnc(Nc2cccc(C(F)(F)F)c2)n1	/	-3.1
21	Cc1ccc(C(=O)N2CCc3ccccc3C2)cc1	-10	-0.1
22	O=C(O)CN1C(=O)c2cc(Cl)c(Cl)cc2C1=O	6	-0.4
23	NC(=O)C1CCN(C(=O)c2ccc3c(c2)sc2nc(-c4ccccc4)cn23)CC1	14	/
24	O=C(NC1CC1)c1ccc(COc2ccc(F)cc2)o1	5	/

Retrieved by structure from the entries so far, three records:
entry	smiles	Sa helicase inh	MgrA-DNA mod
22	O=C(O)CN1C(=O)c2cc(Cl)c(Cl)cc2C1=O	6	-0.4
23	NC(=O)C1CCN(C(=O)c2ccc3c(c2)sc2nc(-c4ccccc4)cn23)CC1	14	/
17	CCOC(=O)C(C)(C)Sc1nnc(COc2ccccc2)n1CC	14	3.1

Carrying on:
entry	smiles	Sa helicase inh	MgrA-DNA mod
25	CCOc1cc(/C=C2\SC(N)=NC2=O)ccc1OC(C)=O	-11	-0.9
26	CCOC(=O)c1sc(NC(=O)c2cccc(S(=O)(=O)N3CCCCCC3)c2)c(C(=O)OCC)c1C	/	2.1
27	CC(=O)Nc1ccc(S(=O)(=O)NC2=NCN(CCOC(=O)c3ccccc3)CN2)cc1	7	3.7
28	CCNC(=O)C1CCCN1C(=O)OCc1ccccc1 (stereo unspecified)	4	/
29	COc1cccc(NC(=S)Nc2ccc(OC)c(OC)c2)c1	/	-3.1
30	O=C(CCCn1c(=O)c2cccn2c2ccccc21)N1CCN(Cc2ccc3c(c2)OCO3)CC1	26	/
31	CCN(CC)CCc1nc(-c2ccccc2)no1	/	-0.9
32	O=C(O)C1CC2CCC1C(O)C2 (stereo unspecified)	/	1.5
33	O=C(NCCCN1CCOCC1)c1nnc(-c2ccc3c(c2)OCO3)o1	-1	1.1
34	Cc1nc(-c2nnc(SCC(=O)c3ccccc3)o2)cs1	/	-2.5
35	COc1ccccc1NC(=O)Cc1noc(COC(=O)c2sc3ccccc3c2Cl)n1	-6	/
36	CC1=Nc2cc(C(=O)NC(C)c3ccccc3)ccc2Sc2ccccc21 (stereo unspecified)	11	1.8
37	Cc1ccc(Cn2c(CO)cnc2SCC(=O)Nc2nc(C)cs2)cc1	12	/
38	Nc1ncnc2c1ncn2CCOc1ccccc1	14	-0.7
39	COc1ccc(OCCCC(=O)NNc2ccccc2)cc1	-11	/
40	NC(=O)CSc1cn(CCNC(=O)c2ccccc2)c2ccccc12	-1	/
41	Nc1ncccc1Cl	7	/
42	COc1cc2c(cc1OC)CN(CC(=O)Nc1ccccc1C(=O)Nc1ccc3c(c1)OCO3)CC2	1	/
43	NC(=O)CSc1ncnc2c1nnn2Cc1ccc(F)cc1	8	0.4
44	C/[N+]([O-])=C\c1ccc(F)cc1	-7	/
45	CCN(CC)S(=O)(=O)c1ccc(N=Nc2c(O)c3ccccc3oc2=O)cc1	-14	/
46	Cn1c(O)c(C=Nc2ccc(Cl)cc2)c(=O)[nH]c1=O	14	-0.5
47	COc1ccc(-n2[nH]c(C)cc2=O)cc1	14	/
48	CC(=O)Nc1nnc(SCC#N)s1	/	0.5
49	CCC(C(=O)O)c1ccc(N2Cc3ccccc3C2=O)cc1 (stereo unspecified)	-24	1.4
50	CCC(Sc1nc2ccccc2c2nc(C)nn12)C(=O)Nc1cc(OC)ccc1OC (stereo unspecified)	10	1.5
51	CC(C)(C)NC(=O)CSc1nnc(NC2=NS(=O)(=O)c3ccccc32)s1	18	0.9
52	NC(=O)NC1CCCCCCC1	/	2.9
53	CC1Cc2cc(C(=O)O)ccc2O1 (stereo unspecified)	13	/
54	Cc1cc(OCC(=O)Oc2ccc(-c3nnco3)cc2)ccc1C(C)C	-3	/
55	Cc1c2cn[nH]c(=O)c2c(C)n1Cc1cccs1	-12	/
56	CCOc1ccccc1C(=O)NCCSc1c[nH]c2ccccc12	4	/
57	CCOC(=O)c1c[nH]n2c(=O)c3c(nc12)CCC3	/	0.8
58	CN1CCc2c(OCc3ccccc3Cl)cccc2C1=O	5	/
59	O/N=C/c1cccc(Cl)c1	/	-0.2
60	CCCn1c(NC(C)=C(C#N)C#N)nc2ccccc21	10	/

Part of the list above in order of heavy-atom count, largest number first:
entry	smiles	Sa helicase inh	MgrA-DNA mod
60	CCCn1c(NC(C)=C(C#N)C#N)nc2ccccc21	10	/
55	Cc1c2cn[nH]c(=O)c2c(C)n1Cc1cccs1	-12	/
59	O/N=C/c1cccc(Cl)c1	/	-0.2

In the list so far, 4 have a thiophene ring, fused or not.
entry	smiles	Sa helicase inh	MgrA-DNA mod
8	Cc1csc2c(N3CCOCC3)ncnc12	0	/
26	CCOC(=O)c1sc(NC(=O)c2cccc(S(=O)(=O)N3CCCCCC3)c2)c(C(=O)OCC)c1C	/	2.1
35	COc1ccccc1NC(=O)Cc1noc(COC(=O)c2sc3ccccc3c2Cl)n1	-6	/
55	Cc1c2cn[nH]c(=O)c2c(C)n1Cc1cccs1	-12	/

The list goes on.
entry	smiles	Sa helicase inh	MgrA-DNA mod
61	Cc1cc(C)c(C(N)=O)c(=S)[nH]1	-8	4.7
62	NC(=Nc1ccccc1)SCC(=O)Nc1nonc1N	-8	-1.6
63	O=C(CSc1ncnc2ccccc12)OCc1ccccc1	-9	/
64	CCc1nc(S(C)(=O)=O)c(C#N)cc1C	9	-1.4
65	O=c1c(-c2ccccc2)c(O)c2cccc3c2n1CC3	/	0.4
66	CS(=O)(=O)c1ccc(C(=O)Nc2ccc(N3CCCCC3)cc2)c(Cl)c1	/	-3.1
67	COc1ccccc1N(CC(N)=O)S(=O)(=O)c1ccccc1	6	0.0
68	CSc1ncc(Cl)c(C(=O)Oc2ccccc2Cl)n1	3	2.4
69	Cc1c(-c2cccc(NC(=O)c3ccccc3F)c2)nc2ncccn12	8	/
70	COC(=O)C1=C(Nc2ccc(OC(=O)Nc3cccc(Cl)c3)cc2)CSC1	/	1.4
71	Cc1cc(C)nc(N/N=C/C2=CCC3CC2C3(C)C)n1 (stereo unspecified)	10	/
72	O=C(c1cccc(S(=O)(=O)N2CCCCC2)c1)N1CCN(C(=O)c2cccc(S(=O)(=O)N3CCCCC3)c2)CC1	/	-2.1

Quoted from the listing.
Under Sa helicase inh, no. 68 is listed with 3
Under Sa helicase inh, no. 71 is listed with 10
Under MgrA-DNA mod, no. 66 is listed with -3.1
Under Sa helicase inh, no. 67 is listed with 6
Under Sa helicase inh, no. 69 is listed with 8

(list continues)
entry	smiles	Sa helicase inh	MgrA-DNA mod
73	O=C(NC1CC1)c1ccc(CS(=O)c2cccc(Cl)c2)o1 (stereo unspecified)	4	/
74	CCOc1nnc(NS(=O)(=O)c2ccc(N=Cc3ccccc3O)cc2)s1	13	-0.1
75	O=C(O)CSc1cccc[n+]1[O-]	/	1.7
76	Cc1c2c(c(C)n1C)C(C(=O)NC1CCCCC1)N(Cc1ccccc1)C2=O (stereo unspecified)	15	/
77	CCCCCCCc1c(O)c2ccccc2[nH]c1=O	/	3.3
78	COc1cc([N+](=O)[O-])c(OC)cc1SCc1n[nH]c(=S)n1-c1cccc(Cl)c1C	/	1.9
79	COc1ccccc1Nc1nc(C)c([N+](=O)[O-])c(Nc2ccccc2OC)n1	/	3.1
80	C[N+]1(C)CC(=O)OC(CO)C1 (stereo unspecified)	-1	-2.6
81	CC1=Nc2ccccc2N=C(N)C1c1ccc(Cl)cc1 (stereo unspecified)	8	2.4
82	CCOC(=O)c1sc(N)c(C#N)c1COC(=O)C1CC(=O)N(c2ccccc2OC)C1 (stereo unspecified)	-62	/
83	COc1cc(OC)c2nc(C)c3c(c2c1)SCC3	/	-4.2
84	Cc1ccc(C)c(-n2c(SCc3ccc(C#N)cc3)nnc2-c2cc3sccc3n2C)c1	10	0.2
85	CCS(=O)(=O)n1nc(-c2ccco2)nc1SC	15	9.9
86	CNS(=O)(=O)c1cc(Cl)ccc1Sc1ccccc1C(=O)O	-19	/
87	Cc1ccc(S(=O)(=O)C(F)(F)F)cc1NC(=O)c1cccnc1	-23	/
88	Cc1[nH]c2ccccc2c1C(=O)CSc1ccc(Cl)cc1	5	2.0
89	O=C(Nc1nc(-c2ccc3c(c2)OCCO3)cs1)c1ccc(Br)s1	21	/
90	COc1ccc(-n2ncc(C(=O)NCc3sccc3C)c2C)cc1	/	-2.0
91	N#CCc1nc2ccccc2[nH]1	5	-0.5
92	N#Cc1nc(COc2ccc(Cl)cc2)oc1NCc1ccco1	1	-3.8
93	O=C(CSc1ccc(F)cc1)NC(=O)C1CCCCC1	-2	/
94	CC1Cc2nc(SCC(=O)N3CCCCC3)n(Cc3ccccc3)c(=O)c2S1 (stereo unspecified)	2	/
95	Cc1ccc(-c2nc3cc(N=Cc4ccccc4O)ccc3o2)cc1	2	-0.3
96	COc1ccccc1NC(=O)N1CCCSC1=NC1CCCCC1	-3	/
97	Cc1ccc(/C=C2\SC(=O)N(CCNC(=O)c3ccc(OCc4c(C)noc4C)cc3)C2=O)cc1	5	/
98	Cc1c(-c2cccc(NC(=O)C(C)(C)Oc3ccc(Cl)cc3)c2)nc2ncccn12	10	-2.4
99	COC(=O)C1=C(C)C(c2ccc(OC)cc2)NC(=O)N1 (stereo unspecified)	15	-2.6
100	COc1ccc2oc(C(=O)OCc3cc(=O)n4c(C)csc4n3)c(C)c2c1	-1	/
101	O=C(CCn1ccc2cc(S(=O)(=O)N3CCCC3)ccc21)NCc1ccccc1	-33	/
102	Cc1ccc(S(=O)(=O)NCCOc2nc(NC(C)C)nc(NC(C)C)n2)cc1	/	1.7
103	Cc1ccc(C(O)(C(=O)NN2CCOCC2)c2ccc(C)cc2)cc1	1	-0.9
104	CC(C)(C)c1cc(C(=O)NNC(=O)c2ccc(C(F)(F)F)cc2)cc(C(=O)NNC(=O)c2ccc(C(F)(F)F)cc2)c1	/	-0.4
